Assay outcomes: PubChem BioAssay, Southern Research Institute
Mtb growth – Confirmatory growth inhibition assay against Mycobacterium tuberculosis H37Rv, potency (AID 1949). most inactive calls were filed without a number and no value below 0 was filed. inhibition, % at 10 µg/mL, or IC50 in µg/mL where a hit was titrated. hit rate 1.6% among 100,000;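 active = confirmed in a dose series; inconclusive = about 50% or more but not retested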;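 also: bacteria grown 7 days with compound before Alamar blue readout; 0% = untreated bacteria and 100% = reference antibiotic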
* marks the source's active call; other numbers are inactive results; i = inactive; ? = inconclusive. A portion of the library (hit frequency here may not be typical).

SMILES	Mtb growth
Cc1ccc(C(=O)NC(=S)Nc2ccc3c(c2)oc2ccccc23)c(C)c1	i
COc1ccc(OC)c(N(CC(=O)Nc2ccc(Br)cc2F)S(=O)(=O)c2ccc(C)cc2)c1	i
Cc1ccc(-c2nc(-c3cccc(C)c3)no2)cc1	i
Cc1nnc(SCC(=O)N2CCN(c3nnnn3-c3ccccc3)CC2)s1	i
COc1ccc(C(=O)OCCc2sc[n+](CC(=O)c3ccccc3)c2C)cc1	i
CC(C)(C)NCC(O)COCCC12CC3CC(CC(C3)C1)C2 (stereo not given)	i
COc1ccc(CNCc2cccc(Cl)c2)cc1	i
CCOC(=O)c1c(C)n(Cc2ccccc2)c2ccc(OCC(O)CNC(C)(C)C)cc12 (stereo not given)	4.3µg/mL*
CC1CCCN(c2ccc(C(F)(F)F)cn2)C1 (stereo not given)	i
CCOC(=O)c1c(NC(=O)C2CCC(=O)N2C2CCCC2)sc2c1CCCC2 (stereo not given)	0%
COc1ccc(S(=O)(=O)NCCO)cc1	i
CNC(=O)CC1C(=O)N(C)C(=S)N1NC(=O)c1ccc(Cl)cc1 (stereo not given)	i
CN1CCN(c2ccc(NC(=O)c3cc(I)ccc3Cl)cc2)CC1	9%
CCc1ccc(N(CC(=O)N2CCN(c3cccc(Cl)c3)CC2)S(C)(=O)=O)cc1	i
Cn1c(=O)c2c(ncn2CC(=O)N2CCN(c3ccccc3)CC2)n(C)c1=O	i
Clc1ccc(Cn2nnc(-c3ccccc3Cl)n2)cc1Cl	i
c1ccc(COc2ccc(OCCCCn3cncn3)cc2)cc1	i
Cc1ccc(Cl)cc1N1CCN(CC(O)COc2ccc3ccccc3c2)CC1 (stereo not given)	4.1µg/mL*
O=c1[nH]cc(COCC(F)(F)C(F)F)c(=O)[nH]1	2%
CS(=O)(=O)Nc1ccc(C(=O)Nc2cccc3ccccc23)cc1	i
CNc1oc(-c2ccccc2)nc1S(=O)(=O)c1ccc(F)cc1	i
COc1ccc(OC)c(S(=O)(=O)Nc2cccc(Cl)c2Cl)c1	i
O=S(=O)(c1cccc2nsnc12)N1CCCCCC1	i
CCCN(C1=NS(=O)(=O)c2ccccc21)c1ccccc1	i
COC(=O)c1ccc(CSc2nc3sc4c(c3c(=O)n2-c2ccccc2)CCCC4)cc1	i
N#Cc1c(NC(=O)CSc2ncccn2)sc2c1CCCC2	3%
CNC(=O)COc1ccc(Br)cc1C	i
N#Cc1c(NC(=O)NCc2ccco2)sc2c1CCC2	i
O=C(c1cc2c(s1)CCCCCC2)N1CCN(C(=O)C2CCCO2)CC1 (stereo not given)	i
CC1CN(C(=O)Nc2ccc(Br)cc2Cl)CC(C)O1 (stereo not given)	2%
O=[N+]([O-])c1ccc(Sc2ccccc2)nc1	i
Cc1ccc([N+](=O)[O-])cc1NC(=O)C1CCCC1	5%
O=S(=O)(c1ccc(NC(=S)NCC2CCCO2)cc1)N1CCCC1 (stereo not given)	i
CN(C)c1ccnc2sc(C(=O)Nc3ccccc3)c(N)c12	i
COc1cc(-n2c(-c3cccnc3)n[nH]c2=S)c(OC)cc1Cl	1%
CC(C)C(=O)Nc1cccc(C(=O)Nc2ccc(S(=O)(=O)N3CCOCC3)cc2)c1	i
O=C(COc1ccc2c(-c3ccccc3)cc(=O)oc2c1)OC1CCCCC1	<0.1µg/mL*
c1ccc(-c2ccccc2OCCOCCN2CCCC2)cc1	i
Cc1nc2cc(NS(=O)(=O)c3cccc4cccnc34)ccc2s1	i
CC1=C(C(=O)Nc2cc(C)cc(C)c2)C(c2ccc(N(C)C)cc2)NC(=O)N1 (stereo not given)	i
COCCSc1ccccc1C(=O)N1CCOCC1	i
COc1ccc(C2(C(=O)NCc3ccco3)CCCC2)cc1OC	i
O=C(NCCCCc1ccccc1)C(Cl)(Cl)Cl	5%
COc1ccc(NC(=O)CCN2CCc3ccccc3C2)cc1	0%
CCOc1ccc(NC(=O)C(=O)c2ccccc2NC(C)=O)cc1	?
Cc1nnc(SCC(=O)Nc2ccccc2C(F)(F)F)n1-c1ccc(F)cc1	2%
COCCn1c(C)cc(C(=O)CSc2ncnc3sc4c(c23)CCC4)c1C	i
Cn1nnc(NC(=S)NC(=O)c2ccc(C(C)(C)C)cc2)n1	i
O=c1oc2c3c4c(cc2cc1-c1nc2ccccc2o1)CCCN4CCC3	3%
COC(=O)C1=CN(C(C)C)C=C(C(=O)OC)C1c1ccc(C)c([N+](=O)[O-])c1	36%

Reformatted: entries from further up.
SMILES: COc1cc(-n2c(-c3cccnc3)n[nH]c2=S)c(OC)cc1Cl
- Mtb growth = 1%
SMILES: CNC(=O)COc1ccc(Br)cc1C
- Mtb growth = i

Further results follow.
SMILES	Mtb growth
COC(=O)CN(c1ccc(F)cc1)S(=O)(=O)c1ccc2c(c1)OCCO2	i
Cc1ccc(N2C(=O)CC(N3CCN(CCO)CC3)C2=O)cc1 (stereo not given)	i
Cc1cc(I)ccc1NC(=S)NC(=O)c1cccs1	i
COc1ccc(Cc2nnc(SCC(=O)Nc3ccccc3OC)n2C)cc1	1%
Cc1cccc(NC(=O)COc2ccc(C3CCCCC3)cc2)c1	13%
CC(NS(=O)(=O)c1ccc(Cl)cc1)C(=O)O (stereo not given)	i
CSc1ccccc1C(=O)Nc1cccc(C(C)O)c1 (stereo not given)	i
O=C(CSc1ccc(Cl)cc1)NCc1ccc(-c2nc3ccccc3s2)cc1	i
COc1ccc(CNC(=O)CN(Cc2ccccc2)S(=O)(=O)c2ccc(Cl)cc2)cc1	i
Cc1cc(NS(=O)(=O)c2ccc(NC(=O)CCN3C(=O)c4ccccc4C3=O)cc2)nc(C)n1	i
Cn1c2ccc(F)cc2c2n[nH]c(=S)nc21	i
Cc1ccc(NC(=O)CSc2nnc(-c3ccccc3O)n2Cc2ccccc2)c(C)c1	i
COc1ccc(C2C(C(C)=O)=C(C)Nc3ncnn32)cc1Br (stereo not given)	i
O=C(Cn1cc(C(=O)C(=O)N2CCOCC2)c2ccccc21)NCc1ccccc1	i
CC(=O)OC(C(=O)N/C(N)=N/c1nc2ccccc2o1)c1ccccc1 (stereo not given)	?
COC(=O)c1c(NC(=O)c2ccc(F)cc2)sc(C(=O)Nc2ccccc2OC)c1C	6%
CCC(C)c1ccc(NC(=S)N2CC(C)OC(C)C2)cc1 (stereo not given)	1%
Cc1cccc(OCC(=O)Nc2ccc3c(C)cc(=O)oc3c2)c1	i
Cc1ccc(N(CC(=O)N2CCCC2)S(C)(=O)=O)cc1Cl	i
Cc1ccnc(N2CCN(c3ncnc4sc5c(c34)CCCC5)CC2)c1	5%
O=C(NCc1ccco1)c1ccc(COCC(F)(F)F)cc1	i
CC(=O)c1ccc(NC(=O)Nc2cc(OCC(F)(F)F)cc(OCC(F)(F)C(F)F)c2)cc1	2.7µg/mL*
Cc1ccc(S(=O)(=O)N2CCCN(S(=O)(=O)c3ccc(C)cc3)CC2)cc1	0%
COC(=O)c1ccc(C2c3c(oc4ccc(C)cc4c3=O)C(=O)N2Cc2ccc3c(c2)OCO3)cc1 (stereo not given)	i
O=C(COc1cccc(Cl)c1)Nc1ccc([N+](=O)[O-])cc1	i
CC(=O)c1ccc(NC(=O)CSc2nnc(Cc3ccccc3)n2Cc2ccccc2)cc1	i
CC(=O)Nc1ccc(OCc2ccc(S(=O)(=O)Cc3ccccc3)cc2)cc1	5%
O=C(CSc1nc2ccccc2[nH]1)N1CCN(c2ccccc2)CC1	i
CC(C)N1CC(C(=O)Nc2ccc(Cl)cc2Cl)CC1=O (stereo not given)	i
Fc1ccc(NC(=S)Nc2cc(-c3ccccc3)[nH]n2)cc1Cl	?
C=CCn1c(SCC(=O)Nc2ccc(OC)cc2)nnc1-c1cc(Br)ccc1O	i
CCCOc1ccc(C(N)CC(=O)O)cc1 (stereo not given)	i
Cc1ccc(C(=O)O)cc1NC(=S)NC(=O)c1ccc2ccccc2c1	1%
N#Cc1cc2c(cc1C#N)OC(c1ccccc1)=NN2	16µg/mL*
CC1CCN(C(=S)c2cccc([N+](=O)[O-])c2)CC1	i
COc1ccccc1OCC(=O)NNC(=S)Nc1cccc(F)c1	i
CCOc1ccc(S(=O)(=O)N(CC(=O)N2CCN(C)CC2)c2ccccc2)cc1	i
COc1ccc(/C(N)=N/OC(=O)CCCOc2ccc(Cl)cc2Cl)cc1	i
C=CCc1cc(OC)ccc1OCCCCN(C)C	i
Cc1ccc(S(=O)(=O)N(C)CC(=O)Nc2ccc(Cl)cc2C(F)(F)F)cc1	i
O=C(COc1ccc(Cl)cc1Cl)Nc1ccccc1N1CCCCC1	i
CC(=O)Nc1c(O)[nH]c2ccc(Cl)cc12	i
Cn1cc(I)c(C(=O)NNC(=O)NC2CCCCC2)n1	i
COc1cc(C=O)cc(OC)c1OC(=O)c1ccc(F)cc1	i
COc1cccc(C2NC(=S)NC(C)=C2C(=O)Nc2ccc(C)cc2)c1 (stereo not given)	i
COc1ccc(C(=O)Oc2cc(OC)ccc2C(C)=O)cc1	i
CCCc1cc(=O)oc2c(C)c(OCc3cccc(OC)c3)ccc12	1%
S=C1NC(C23CC4CC(CC(C4)C2)C3)=CC(c2ccc3c(c2)OCO3)N1 (stereo not given)	i
COC(=O)c1c(NC(=O)c2cccc([N+](=O)[O-])c2C)sc2c1CCCCCC2	9%
Cc1ccc(-c2cnc3ccccc3n2)cc1NC(=O)C(C)C	0%

The list continues:
SMILES	Mtb growth
O=C1c2ccc(Oc3cccc([N+](=O)[O-])c3)cc2C(=O)N1Cc1ccccc1	i
CC(=O)Nc1cccc(-c2cn3cccc(C)c3n2)c1	i
Cn1cnc2c1c(=O)n(Cc1ccc(-c3nnc(N)s3)cc1)c(=O)n2C	i
COC(=O)Cc1c(C)c2cc(Cl)c(OCc3cc4c(cc3Cl)OCO4)cc2oc1=O	i
CCOC(=O)c1ccc(NC(=O)c2ccccc2SC)cc1	4%
CCOc1cccc(C(=O)NC(=S)Nc2ccccc2C(N)=O)c1	i
Cc1cc(OCC(=O)N2CCN(c3ccccc3)CC2)cc(C)c1Br	11%
COC(=O)c1c(NC(=O)c2ccccc2OC)sc(C)c1C	11%
O=C(CSCc1ccccc1F)NNC(=S)Nc1ccc2c(c1)OCO2	i
COc1ccccc1N1C(=O)NC(=O)/C(=C/c2cc(OC)c(OC)c(OC)c2)C1=O	i
O=C(CNC(=O)C1CCCCC1)NNC(=S)Nc1ccccc1	i
NS(=O)(=O)c1ccc(NC(=S)NC2CCCc3ccccc32)cc1 (stereo not given)	i
O=C(CC1Sc2ccc(C(F)(F)F)cc2NC1=O)Nc1cccc(C(=O)O)c1 (stereo not given)	i
O=C(CSc1nc2ccccc2o1)N1N=CCC1c1ccccc1 (stereo not given)	i
O=C(NCCSCc1c(Cl)cccc1Cl)Nc1ccccc1	i
COc1ccc(-c2cc(=O)oc3cc(OCc4c(F)cccc4F)ccc23)cc1	i
CCCCn1c(CCNC(=O)c2ccc(F)cc2)nc2ccccc21	i
Cc1ccc(C(=O)O)cc1NC(=S)NC(=O)c1cccc2c(Br)cccc12	i
CCOc1cc(C=O)c(Cl)cc1OCC(=O)NCCc1ccccc1	i
Clc1cc(Br)ccc1OCCNCc1ccccc1	i
CCc1ccc(C(=O)NC(=S)Nc2nc3ccc(OC)cc3s2)cc1	10%
CC(=O)c1ccc(NC(=O)c2cn(-c3ccccc3)nc2-c2cccc([N+](=O)[O-])c2)cc1	6%
CCOC(=O)c1c(C)oc2ccc(NS(=O)(=O)c3cccc4cccnc34)cc12	3%
CCC(C)Nc1c([N+](=O)[O-])ccc2nonc12 (stereo not given)	i
O=C(NC1C2CC3CC(C2)CC1C3)c1cccnc1 (stereo not given)	i

Random excerpt: six entries already listed
SMILES	Mtb growth
COc1ccc(NC(=O)CCN2CCc3ccccc3C2)cc1	0%
COc1ccccc1N1C(=O)NC(=O)/C(=C/c2cc(OC)c(OC)c(OC)c2)C1=O	i
CCOc1ccc(S(=O)(=O)N(CC(=O)N2CCN(C)CC2)c2ccccc2)cc1	i
O=C(NC1C2CC3CC(C2)CC1C3)c1cccnc1 (stereo not given)	i
Clc1cc(Br)ccc1OCCNCc1ccccc1	i
Cc1cccc(OCC(=O)Nc2ccc3c(C)cc(=O)oc3c2)c1	i

(more compounds)
SMILES	Mtb growth
O=C(NCc1ccco1)C(=O)Nc1ccccn1	i
Cc1c(C(=O)O)sc2nc(SCC(=O)Nc3ccccc3C(F)(F)F)[nH]c(=O)c12	i
Cn1cc(Cl)c(C(=O)Nc2ccncc2)n1	i
Cc1cc(OCC(=O)N2CCOCC2)cc(C)c1NC(=O)C12CC3CC(CC(C3)C1)C2	i
COCCn1c(C)cc(C(=O)CSc2nnc(C)s2)c1C	i
Cc1cc(C=O)c(C)n1-c1cc(C(=O)O)cc(C(=O)O)c1	i
Cc1c(Cl)cccc1N=C(N)N=C(N)N	i
C#CCOc1cc(Br)c(C2NC(=O)NC(C)=C2C(=O)NCc2ccccc2)cc1OC (stereo not given)	0%
O=C(CSCc1cccc(Br)c1)N1CCCCCC1	i
COc1ccccc1NC(=O)CSc1nnc(C(C)NC(=O)c2ccccc2)n1C (stereo not given)	i
COc1ccc(Cl)cc1C(=O)NC(=S)Nc1cc(C(=O)O)ccc1C	i
C=CCn1c(SCC(=O)Nc2cc(C)ccc2C)nnc1-c1ccc(C)cc1	i
CCOc1ccc(NC(=O)CSCCO)cc1	i
COc1ccccc1N1CCN(Cc2cc(Br)c(O)c3ncccc23)CC1	1%
